# Rango-impB inh: Rango-importin beta binding inhibition | Q14974 | Rango CFP/YFP FRET sensor + importin beta, 45 min | Potency, µM (doses to about 92.2 µM), without a hit: at the highest dose inhibition of complex formation | 0.031% of 340,000 active | AID 540263; active = rising FRET ratio curve, often small or poorly fitted; inconclusive = mostly compound fluorescence or quenching in the first reads; inactive = flat curves in all reads;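 further: potency means the concentration at half of the fitted maximal effect; 0% = DMSO wells and 100% = buffer wells lacking importin beta; nearly all actives have a fitted effect of over 15% in size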
#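 FRET biosensor (snurportin 1 IBB flanked by EYFP and cerulean), 50 nM, with compound 5 min, then 0.125 microM importin beta in PBS, 1 mM DTT, 0.02% Tween-20, 0.1% BSA. CFP/YFP ratio read after 45 min at room temperature; pre-read flags interference.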
# Rango dissoc inh: prevents RanGTP from dissociating the Rango-importin beta complex | O95149+P62826 | Biochemical FRET Rango-importin beta, RanGTP-induced dissociation | Potency, µM (doses to about 46.1 µM), inactives show top-dose activity change, negative = inhibition | 0.071% of 340,000 active | AID 540253; active means falling FRET ratio curve, often poorly fitted, with flat reads before Ran was added; inconclusive means other falling curves, or compound fluorescence or quenching; inactive means flat or rising ratio curve;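 further: potency means the concentration at half of the fitted maximal effect; % of control where 0% means no effect; nearly all actives have a fitted effect of over 45% in size; -100% = wells without RanGTP and RCC1; the record marks most hits as doubtful in a second field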
#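 Rango/importin beta premix (0.1/0.25 uM final), PBS + 1 mM DTT + 0.02% Tween-20 + 0.1% BSA; cpd 5 min RT; FRET pre-read; + RanGTP-RCC1 (0.6 uM Ran, 2 mM GTP, 0.2 uM RCC1); 45 min RT; FRET post-read, ex 430, em 486/530 nm.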
# GLA inh pH 4.5: inhibitors of human alpha-galactosidase A at pH 4.5; P06280; purified enzyme, 4-MU-alpha-Gal fluorescence, pH 4.5; activity change, negative = inhibition, % at 105 µM; 230,000 tested, under 10 active; AID 1467; inconclusive = small, poorly fitted or top-dose-only inhibition, or a rising curve; inactive = flat fitted curve, though single readings scatter; no compound was filed as active;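 further: 0% = full activity with enzyme and -100% = basal without enzyme; dose as in the result columns while the protocol names 77 µM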
# Target sequence (P06280 whole entry, looked up): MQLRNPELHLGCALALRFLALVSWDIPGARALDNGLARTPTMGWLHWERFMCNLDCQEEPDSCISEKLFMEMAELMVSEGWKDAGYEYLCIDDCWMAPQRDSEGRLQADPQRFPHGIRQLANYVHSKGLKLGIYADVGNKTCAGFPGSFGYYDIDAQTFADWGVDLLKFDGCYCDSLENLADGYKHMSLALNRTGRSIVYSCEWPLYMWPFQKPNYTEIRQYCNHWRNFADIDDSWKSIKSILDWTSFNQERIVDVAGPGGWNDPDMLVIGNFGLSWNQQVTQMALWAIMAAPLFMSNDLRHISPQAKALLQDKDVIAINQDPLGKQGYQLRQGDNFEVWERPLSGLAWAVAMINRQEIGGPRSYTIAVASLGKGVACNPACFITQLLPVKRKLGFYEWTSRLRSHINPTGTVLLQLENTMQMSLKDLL
# miR-21 FLuc: raises the signal of a miR-21 reporter; HeLa miR-21 FLuc reporter, luciferase, 48 h; Potency, µM (top dose mostly 38.3 µM), inactives show at the highest dose reporter change, positive = more light; 340,000 tested, under 10 active; AID 2288; active = well fitted rising curve with a large enough effect; inconclusive = small, poorly fitted or top-dose-only effect; inactive = no such curve, though single readings can be large or run the other way;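 further: % of control where 0% means no effect; miR-21 action dims this reporter so a rising signal means less miR-21 action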
#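 HeLa miR-21-FLuc reporter line, endogenous miR-21; 2000 cells/well in DMEM/10% FBS; compound titration up to ~40uM final, 48 h, 37 degree Celsius; luciferase detection reagent, 15 min lysis, CCD luminescence.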
# An asterisk follows results filed as active; ? = inconclusive; · = no result given; & = joins results of further samples; [ ] = remark or other dose. This is a subset. The share of hits here may be higher or lower than overall.
SMILES,Rango-impB inh,Rango dissoc inh,GLA inh pH 4.5,miR-21 FLuc
Cc1ccc(S(=O)(=O)Nc2cccnc2)c(C)c1C,-1.9%,-5%,·,8%
CC(C(=O)NCC1CCCO1)N(C(=O)c1snc(C(N)=O)c1N)c1cccc(F)c1 (centres undefined),0.2%,4%,6,-6%
O=C(NCC(c1ccc(F)cc1)N1CCOCC1)c1ccccc1F (centres undefined),1.4%,9%,4,0%
CC1Cc2nc(SCC(=O)NCc3ccco3)n(-c3ccccc3)c(=O)c2S1 (centres undefined),0.1%,-12%,11,-5%
Cc1cc2sc(C(=O)O)c(C)c2s1,2.5%,2%,-4,0%
COc1ccc(/C=N/n2cc(-c3ccccc3)nc2N)cc1,-1.3%,-16%,-6,-19%
c1ccc2[nH]c(SCC3CCCCO3)nc2c1 (centres undefined),0.1%,5%,8,-29%
CCc1ccc(C(=O)/C=C/NCc2ccc(F)cc2)cc1,?,?,2,-40%
C[C@@H]1COC(=O)[C@H](Cc2ccc(F)cc2)C/C=C\C[C@@H](CC(=O)NCCO)C(=O)N1,-2.8%,-9%,·,·
Cc1nc2ccccc2cc1C(=O)NCc1ccccc1,-3.5%,-18%,·,·
Cc1c(C(N)=O)cc([N+](=O)[O-])cc1[N+](=O)[O-],1.9%,-1%,1,·
CC(NC(=O)NC(=O)c1ccc(F)cc1)C1CC1 (centres undefined),2.2%,17%,·,·
CC(NC(=O)N(Cc1ccccc1)Cc1ccc2c(c1)OCO2)(C(F)(F)F)C(F)(F)F,-2.0%,7%,-1,-11%
COc1cc(OC)cc(C(=O)N[C@H](C(=O)NCCc2ccc(S(N)(=O)=O)cc2)C(C)C)c1,-2.5%,21%,·,7%
C(#CCN1CCOCC1)COC(c1ccccc1)c1ccccc1,-6.4%,1%,0,-5%
C/C(=N\NC(=O)c1nnn(-c2nonc2N)c1CSc1ccccc1)c1ccc2c(c1)OCO2,0.2%,-17%,·,-4%
CC(OC(=O)c1ccc(-n2cnnn2)cc1)C(=O)Nc1ccccc1[N+](=O)[O-] (centres undefined),-0.1%,2%,·,·
COc1ccc(-c2ccnc3c(C(=O)O)cnn23)cc1,0.7%,?,0[21.1 µM],3%
COc1ccc(-n2c(SCC(=O)Nc3cc(C)on3)nc3c(c2=O)SCC3)cc1,-0.7%,-5%,1,-3%
Cc1cccc(NC(=O)CSc2ncnc3sc(C)c(C)c23)n1,?,-3%,·,-5%
Cc1ccc(S(=O)(=O)N2CCN(CCOc3c(Cl)cccc3Cl)CC2)cc1C,-0.2%,-1%,·,·
O=C(CNCc1ccc(F)cc1)Nc1ccccc1[N+](=O)[O-],0.7%,1%,7,-13%
Cc1ccc(C)c(N2CCN(S(=O)(=O)c3ccc4c(c3)NC(=O)CO4)CC2)c1,-2.4%,1%,·,7%
COc1ccc2cc(C(=O)C3CCCN(C(=O)/C=C/c4ccccn4)C3)ccc2c1 (centres undefined),0.0%,7%,?,-2%
CCOCCCNc1ccc(-c2ccccc2)nn1,9.2%,0%,-1,-40%
CCc1nnc(NS(=O)(=O)c2ccc(N=Cc3c(C)[nH]n(-c4ccc(C)cc4)c3=O)cc2)s1,0.1%,-10%,-1,-5%
O=C(Nc1ccccc1C(=O)OCc1nnc(-c2ccccc2)o1)c1ccco1,6.2%,-4%,-5,-4%
O=C(NC1C=CS(=O)(=O)C1)c1ccccc1 (centres undefined),-1.1%,-9%,8,0%
Cc1ccc(C)c(N2CCN(C(=O)CN3C(=S)NC(C)(C)CC3C)CC2)c1 (centres undefined),-5.3%,18%,2,7%
CC(=O)Nc1nonc1NC(=O)CSC1=NCCS1,0.7%,-5%,9,2%

# Overlap with the part before: 6 entries, followed by the next part.
SMILES,Rango-impB inh,Rango dissoc inh,GLA inh pH 4.5,miR-21 FLuc
CCOCCCNc1ccc(-c2ccccc2)nn1,9.2%,0%,-1,-40%
CCc1nnc(NS(=O)(=O)c2ccc(N=Cc3c(C)[nH]n(-c4ccc(C)cc4)c3=O)cc2)s1,0.1%,-10%,-1,-5%
O=C(Nc1ccccc1C(=O)OCc1nnc(-c2ccccc2)o1)c1ccco1,6.2%,-4%,-5,-4%
O=C(NC1C=CS(=O)(=O)C1)c1ccccc1 (centres undefined),-1.1%,-9%,8,0%
Cc1ccc(C)c(N2CCN(C(=O)CN3C(=S)NC(C)(C)CC3C)CC2)c1 (centres undefined),-5.3%,18%,2,7%
CC(=O)Nc1nonc1NC(=O)CSC1=NCCS1,0.7%,-5%,9,2%
Cc1oc(-c2ccccc2Cl)nc1CN1CCCCC1c1cccnc1 (centres undefined),-0.5%,-11%,-3,1%
Cc1c(O)ccc2c(CC(=O)N[C@@H](Cc3c[nH]c4ccccc34)C(=O)O)cc(=O)oc12,?,?,·,0%
Cc1ccccc1NC(=O)C1CCC(C)(C(=O)O)C1(C)C (centres undefined),-3.5%,-11%,4,-1%
CCOC(=O)c1ccc(-n2c(C)nc3c(cnn3-c3ccccc3Cl)c2=O)cc1,3.4%,1%,-5,5%
Cc1c(NC(=O)CN2CCN(c3ccc(O)cc3)CC2)c(=O)n(-c2ccccc2)n1C,-5.1%,1%,-19,1%
CN1CCN(c2nc3c(c(=O)[nH]c(=O)n3C)n2CCOc2ccccc2)CC1,0.7%,-7%,2,-18%
COc1cccc(N2CCN(C3OC(=O)c4ccccc43)CC2)c1 (centres undefined),2.9%,-5%,2,-4%
C#CCOC(=O)Nc1cc(C)n(-c2ccccc2)n1,-1.4%,-3%,-8,-1%
CCOC(=O)c1ccc2[nH]c3c(c2c1)CCCC3C(=O)OCC (centres undefined),-3.6%,22%,-13,-12%
CC(C)(C)c1nn(-c2ccccc2)c2[nH]c(=O)c(CNCc3ccc4c(c3)OCO4)cc12,?,-7%,-4,0%

# Among those listed so far, three contain a nitro group on carbon:
SMILES,Rango-impB inh,Rango dissoc inh,GLA inh pH 4.5,miR-21 FLuc
Cc1c(C(N)=O)cc([N+](=O)[O-])cc1[N+](=O)[O-],1.9%,-1%,1,·
CC(OC(=O)c1ccc(-n2cnnn2)cc1)C(=O)Nc1ccccc1[N+](=O)[O-] (centres undefined),-0.1%,2%,·,·
O=C(CNCc1ccc(F)cc1)Nc1ccccc1[N+](=O)[O-],0.7%,1%,7,-13%

# (list continues)
SMILES,Rango-impB inh,Rango dissoc inh,GLA inh pH 4.5,miR-21 FLuc
Cc1ccc(NC(=O)CCC2CC(C)(C)OC2=O)cc1 (centres undefined),-0.3%,0%,-5,-1%
COc1ccc(CCNC(=O)CC2SC(=NCCc3ccccc3)NC2=O)cc1OC (centres undefined),-3.8%,-16%,-6,0%
N#CCN1CCC(c2cc(-c3ccco3)n[nH]2)CC1,0.0%,1%,10,-1%
CCOC(=O)N1CCN(C(=O)C2CCCN(Cc3nc(-c4ccc(Cl)cc4)oc3C)C2)CC1 (centres undefined),?,-18%,-3,27%
COc1ccccc1Oc1ccc(NC(=O)c2ccc(Cl)cc2)cc1,2.9%,19%,2,-3%
O=C(NNS(=O)(=O)c1ccc(Cl)cc1)c1cc(-c2ccccc2)n[nH]1,0.1%,-11%,4,2%
Cc1cccc(C)c1OCC(N)C(C)C (centres undefined),7.9%,-4%,5,·
Cc1cccc(NC(=O)C2CCCN(S(=O)(=O)c3ccc(-n4cnnn4)cc3)C2)c1 (centres undefined),-3.7%,-7%,·,4%
CC(=O)Nc1ccc(C(=O)CSc2ncn(-c3ccccc3)n2)cc1,-2.0%,14%,1,-26%
CCOc1ccc(S(=O)(=O)Nc2nc3ccccc3nc2N2CCN(C)CC2)cc1,-2.8%,-8%,-8,-13%
Cc1cc(C(=O)N/N=C/c2ccccn2)c2ccccc2n1,3.6%,26%,·,-6%
O=C(O)/C(=C\c1ccc(Cl)cc1)c1ccc(F)cc1,1.6%,8%,-6,0%
Cc1ccc(S(=O)(=O)c2c(N)n(NC(=O)c3ccco3)c3nc4ccccc4nc23)cc1,?,?,3,2%
COc1ccccc1N1CCN(/N=C/c2cc([N+](=O)[O-])ccc2Cl)CC1,0.0%,1%,-2,2%
CC(C)c1nnc(NC(=O)c2cnccn2)s1,-1.1%,-13%,6,-36%
CCOC(=O)c1ccc2c(c1)C1C=CCC1C(C(=O)OCC)N2 (centres undefined),?,?,·,0%
COCCn1c(-c2ccc(OC)c(OC)c2)nc2ccccc21,1.6%,-4%,1,-22%
Cc1ccc(C)c(NC2=C(Cl)C(=O)OC2OC(C)C)c1 (centres undefined),3.5%,-2%,-27,-5%
O=C(NN=C1CCCCCCC1)c1ccccn1,-5.2%,-3%,-4,-44%
Cc1[nH]c2ccc(OC(F)(F)F)cc2c1CCN1C(=O)c2ccc(C(=O)O)cc2C1=O,3.4%,8%,·,-6%
CCOCCCNC(=O)C1CCCN(S(=O)(=O)c2ccc(-n3cnnn3)cc2)C1 (centres undefined),-0.7%,19%,·,1%
Cc1ccc2c(CN3CCN(S(=O)(=O)c4ccccc4C(F)(F)F)CC3)cc(=O)oc2c1,2.6%,-19%,·,·
Oc1ccc(C2=Nn3c(nnc3-c3ccco3)SC2)cc1O,-1.2%,4%,6,12%
Cc1ccc(N2CCN(S(=O)(=O)c3ccc4c(c3)n(C)c(=O)c(=O)n4C)CC2C)cc1 (centres undefined),0.4%,4%,9,-7%
Cc1ccc(NC(=O)CSc2nnc(C)n2CC2CCCO2)cc1 (centres undefined),0.8%,5%,-1,0%
COc1ccc(NC(=O)CN(C)C(=O)c2ccccc2OC)cc1,0.1%,-8%,·,-8%
COc1ccc2c(c1OC)C(=O)OC2c1c(O)nc(SC)n(-c2ccccc2)c1=O (centres undefined),1.2%,2%,0,0%
Cc1nc2nc(C)c(CCC(=O)NCCCN3CCN(c4cccc(Cl)c4)CC3)c(C)n2n1,-5.0%&-2.7%,-12%&16%,6&-4,-2%&-1%
C[C@H](CO)N1C[C@H](C)[C@@H](CN(C)C)Oc2c(NC(=O)Cc3ccccc3)cccc2C1=O,5.4%,18%,·,·
O=C(Cc1cccc(NC(=O)C2CCN(C(=O)C3CCCC3)CC2)c1)Nc1cccc(C(=O)N2CCCC2)c1,-0.6%,-3%,·,·
Cn1cc[n+](C)c1COc1ccc(C=O)cc1,1.3%,-6%,·,1%
Clc1ccc(-c2noc(CSc3nnc(-c4ccncc4)n3-c3ccccc3)n2)cc1,1.3%,-16%,4,23%
CCN(CC)CCC(c1cc(OC)c(OC)c(OC)c1)c1c(OC)cc(OC)c2ccc(=O)oc12 (centres undefined),0.1%,6%,2,-1%
CCc1cc(C(=O)N/N=C/c2ccc(OC)cc2)c2ccccc2n1,-0.1%,7%,·,16%
O=C(CC1C(=O)NCCN1Cc1c(F)cccc1Cl)NCc1ccccc1 (centres undefined),0.8%,2%,2,-14%
Cc1cccc(C)c1NC(=O)COC(=O)CNC(=O)C1CCCCC1,-1.0%,22%,·,·
CCOc1ccc(C(=O)O[C@H]2[C@H](Cc3ccccc3)NS(=O)(=O)[C@H]3C[C@@H]4C=C[C@]23O4)cc1,-3.8%,?,·,·
NS(=O)(=O)c1ccc(NS(=O)(=O)c2ccc(NC(=S)Nc3ccccc3)cc2)cc1,-2.3%,0%,0,-7%
CCC(Oc1ccccc1)C(=O)N(CC)CC(=O)NCc1ccc(F)cc1 (centres undefined),-1.7%,?,·,·
O=c1c2cc(N3CCOCC3)ccc2[nH]c(=S)n1Cc1ccccn1,?,?,-14,-18%
CCC/C(=N/Nc1ccc(Cl)cc1)c1cnnc(-c2ccccc2)n1,-3.2%,3%,·,·
CCN(CC)S(=O)(=O)c1ccc(C(=O)OC2CCCCC2CN(C)C)cc1 (centres undefined),1.3%,-8%,-2,-3%
Nc1ncc(-c2ccccc2)n1CC1CCCO1 (centres undefined),4.6%,3%,-3,-10%
COC(=O)CC1Nc2ccccc2SC1=O (centres undefined),0.1%,2%,1,-2%
COc1ccccc1C(=O)NCCC(=O)N1CCN(c2cccc(C(F)(F)F)c2)CC1,-0.9%,-25%,·,·
CCNC(=O)CSc1nc(-c2ccc(F)cc2)cs1,-1.3%,17%,-2,-48%
COc1ccc(-c2c[n+]3c4n2CCCCC4=C(c2ccccc2)C3)cc1,?,?,20,?
